# Screening data: PubChem BioAssay, several laboratories
# BJeLR viability: MLPCN primary cell-based screen for lethality selective to Ras in HRASV12 cells | 0.17% of 300,000 active | inhibition, % (no concentration beside the values) | BJeLR (HRASV12) viability, CellTiter-Glo ATP luminescence, 48 h; reference of the scale not given here | AID 1554, 2009;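 active = replicate mean above 50%; inconclusive = above 50% but judged a plate artefact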;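 note: 50 nL library stock added to about 25 µL; numbers are from one replicate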
# Sa ugtP lethal: growth inhibition of ugtP-null S. aureus, primary screen, RN4220 ugtP deletion, OD600 | 16 h; some inactives read as strong as hits | growth inhibition, % (concentration not given with the values) | 0.54% of 330,000 active | AID 1259309, 2017;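 active = z-score under -3 and OD600 up to 0.15 on both plates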;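 note: plate controls were untreated wells for no effect and antibiotic for full effect; wells of about 80 µL received 100 nL stock; the first replicate is given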
# Bead autofluor: flagged as autofluorescent in microsphere protease counterscreen; 3.1% of 360,000 active; compound autofluorescence counterscreen, microsphere flow cytometry; hits give high values; AID 624483; fluorescence intensity (concentration not given with the values);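 active = at least 3 SD above the mean of all compounds, about 16000 in these data; inconclusive = too few beads counted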;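 note: 100 nL of 1 mM stock went into each well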
# PrP UTR inh: inhibition of PrP 5' UTR reporter expression. 0.35% of 340,000 active. cell-based PrP 5' UTR mRNA reporter, plate reader. inhibition, % (no concentration beside the values);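 active = every replicate at 50% or more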;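 note: 0 = median of the neutral control wells; tested in H4 reporter cells; numbers are from one replicate; inactives centre near -14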
# RN4220 kill: growth inhibition of S. aureus RN4220, primary screen, OD600; 0.33% of 330,000 active; 16 h; inhibition, % (concentration not given with the values);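 active = z-score of -3 or lower and OD600 up to 0.18 on both plates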;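 note: plate controls were untreated cells for no effect and reference antibiotic for full effect; stock transfer was 100 nL into about 80 µL; one replicate is shown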
# Mtb hypoxia inh: PubChem AID 1159583 | M. tuberculosis hypoxia-regulated fluorescent reporter, fluorescence | fluorescence inhibition, % (test concentration not listed) | 0.1% of 300,000 active;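 active = 35 to 45% if threefold the growth effect, above 45% if 1.5-fold the growth effect; inactive = the rest, general growth blockers included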;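 note: wells of about 50 µL received 100 nL stock; 0% = vehicle wells and 100% = reference inhibitor wells; whole bacteria with a GFP reporter of the hypoxia response; strong numbers were not always called active; many hits fall short of the cut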
# Mtb hypoxia inh growth: further read-out of Mtb hypoxia inh, marked with its call; growth inhibition, %; measured here: M. tuberculosis growth (absorbance);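 0% = vehicle and 100% = reference antibiotic; read after six days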
# Active calls of the source: *; ? = inconclusive; / = no result given.
# A first look:
molecule	BJeLR viability	Sa ugtP lethal	Bead autofluor	PrP UTR inh	RN4220 kill	Mtb hypoxia inh	Mtb hypoxia inh growth
COc1ccccc1NC(=O)C/C(C)=N/NC(=O)C12CC3CC(CC(C3)C1)C2	6	/	3775	-26	/	/	/
O=C(NCc1ccccc1Cl)c1nnc(CS(=O)(=O)c2ccccc2)o1	3	4	5108	-17	-5.0	10	11
CCCCC[n+]1cccc2c3ccccc3ccc21	27	/	2606	-21	/	/	/
CSCC[C@H](NC(=O)[C@@H]1Cc2c([nH]c3ccccc23)C2c3ccccc3C(=O)N21)C(=O)NCC1CCCO1 (some centres not stated)	-12	-4	5007	-46	1.4	/	/

# The listing, from the first entry:
molecule	BJeLR viability	Sa ugtP lethal	Bead autofluor	PrP UTR inh	RN4220 kill	Mtb hypoxia inh	Mtb hypoxia inh growth
COc1ccccc1NC(=O)C/C(C)=N/NC(=O)C12CC3CC(CC(C3)C1)C2	6	/	3775	-26	/	/	/
O=C(NCc1ccccc1Cl)c1nnc(CS(=O)(=O)c2ccccc2)o1	3	4	5108	-17	-5.0	10	11
CCCCC[n+]1cccc2c3ccccc3ccc21	27	/	2606	-21	/	/	/
CSCC[C@H](NC(=O)[C@@H]1Cc2c([nH]c3ccccc23)C2c3ccccc3C(=O)N21)C(=O)NCC1CCCO1 (some centres not stated)	-12	-4	5007	-46	1.4	/	/
c1cc(-c2nnc3n2CCC3)[nH]n1	3	16	7278	-15	6.2	2	2
Cc1ccc(S(=O)(=O)N2CCCCC2)cc1C(=O)c1nccn1C	-4	-1	7959	-23	7.1	0	2
CCCCCC(=O)Nc1cccc(C2=NOC3(C2)CC(C(N)=O)N(C(=O)CC)C3)c1 (configuration not stated)	/	-2	/	/	3.5	-13	3
Cc1ccnc(NS(=O)(=O)c2ccc(NC(=O)COc3ccccc3)cc2)n1	1	-12	3241	-24	0.0	-2	12
O=[N+]([O-])c1ccc(N/N=C\c2cccnc2)nc1	0	/	8065	-62	/	/	/
CCCC1(C(=O)OC)NC(c2ccco2)C2C(=O)N(c3ccc(C)cc3)C(=O)C21 (configuration not stated)	3	49	3959	-32	3.8	19	6
CCOC(=O)c1ccc(N(C(=O)c2cnccn2)C(C(=O)NC2CCCCC2)c2cn(C)nc2C)cc1 (configuration not stated)	-5	-7	10051	-29	3.4	11	10
COc1ccccc1-n1c(C)cc(C=O)c1C	-1	1	2640	-33	0.5	/	/
COc1ccc(C(=O)Nc2nnc(S(=O)(=O)N3CCCCCC3)s2)cc1OC	-2	10	4929	0	2.1	1	8
COc1ccc(C=NNC(=O)C2(O)c3ccccc3-c3ccccc32)cc1	/	-2	/	/	4.1	6	7
CC(=O)N1CCc2cc(S(=O)(=O)CCC(=O)NCCc3ccc(C)cc3)ccc21	-5	0	5390	-16	0.2	2	10
CCNc1nc(NCC)n2c(SC(C(=O)Nc3cc(Cl)cc(Cl)c3)c3ccccc3)nnc2n1 (configuration not stated)	-14	-3	2594	-31	1.4	3	4
O=C1CC(Sc2ncccc2C(=O)O)C(=O)N1 (configuration not stated)	-10	2	3174	-5	1.6	0	6
COc1ccc(NC(=O)c2cc(-c3ccco3)on2)c(OC)c1	-9	8	5904	-21	0.1	-7	-5
COc1cc(CNC(C)C23CC4CC(CC(C4)C2)C3)cc(OC)c1OC (configuration not stated)	9	-4	3043	-17	-1.4	8	0
COc1ccc(CC(=O)Nc2ccc(/C(C)=N\NC(=O)c3ccc(Br)o3)cc2)cc1	12	/	7675	-22	/	/	/
Brc1ccc(-c2nc(-c3cccnc3)no2)o1	0	-14	4017	-38	4.4	15	11
Cc1cc[n+](-c2[nH]c(=O)sc2/C=N/NC([S-])=Nc2ccccc2)cc1C	-1	/	10995	-9	/	/	/
Cc1nc2c(ccc3nc(NC(=O)c4ccc5c(c4)OCCO5)sc32)s1	-1	-18	10309	-114	7.8	4	8
Cc1ccccc1/C=N/n1c(-c2cc(-c3ccccc3)n[nH]2)n[nH]c1=S	16	/	4983	-14	/	/	/
CC12CCC(=O)N1C(C(=O)Nc1cc(Cl)ccc1N1CCOCC1)CS2 (configuration not stated)	-5	0	5862	3	0.4	2	-1
CC1=C(C)CC(C(=O)NNC(=O)c2csc(C)c2C)C(C(=O)O)C1 (configuration not stated)	-5	10	3447	-9	4.8	-6	-2
COc1ccccc1C(C)NC(=O)c1cc(S(=O)(=O)N2CCCCC2)ccc1C (configuration not stated)	/	10	6110	-3	5.4	5	2
COc1ccc(/C(C)=N/NC(=O)OC(C)(C)C)cc1[N+](=O)[O-]	-3	/	5828	-17	/	/	/
CCOc1ccc(CCNC(=O)COC(=O)COc2ccc(Cl)cc2)cc1OCC	-11	3	?	2	-1.1	-6	0
O=C(CCc1nc2ccccc2[nH]1)Nc1ccccc1F	-4	5	6675	-4	13	-5	7
Cc1cc(C(=O)N(C)C2CCCCC2)no1	-6	5	4030	-18	1.7	3	-6
CC(=CC(=O)c1ccccc1)Nc1ccc2c(c1)OCO2	/	-6	/	/	10	5	3
CC(C)Oc1cccc(C(=O)C2CCCN(Cc3cnn(C(C)C)c3)C2)c1 (configuration not stated)	-1	6	3889	-30	3.6	11	9
Cc1nn(C)c(C(=O)NN=Cc2ccc(Br)cc2)c1Cl	/	-3	/	/	8.1	2	2
COc1ccc(NC(C)C(=O)N/N=C/c2ccccc2OCc2cccc(Br)c2)cc1 (configuration not stated)	4	/	1983	-18	/	/	/
COc1ccc2c(-c3ccccc3)cc(SCC(=O)N(C)C3CCS(=O)(=O)C3)nc2c1 (configuration not stated)	14	-4	2306	-13	2.9	4	5
c1ccc(-c2noc(-c3ccncc3)n2)nc1	24	-4	11513	-52	5.9	9	4
COc1ccc(S(=O)(=O)N(CC(=O)NC(C)C)Cc2ccccc2)cc1	-27	1	7545	/	0.6	5	6
CCn1c(=O)n(CC)c2cc(N3CCCC3)c(NC(=O)c3cc(Br)ccc3OC)cc21	2	-12	/	/	-5.1	-10	2
COc1ccc(N=[N+]([O-])c2ccc(OC)cc2)cc1	/	6	3958	-7	5.7	25	11
ON=Cc1ccc(OCc2ccccc2)c(Cl)c1	/	-1	/	/	12	6	1
CC1CCC2C(=O)N3C(CCC(C)C3c3ccc(Br)cc3)C(=O)N2C1c1ccc(Br)cc1 (configuration not stated)	/	6	/	/	-6.9	5	9
O=C(CSc1nnc(SCc2ccccc2Cl)s1)N/N=C/c1ccc(C(=O)O)cc1	0	/	5533	-9	/	/	/
COc1ccccc1N1CCN(CC(=O)Nc2cc(C)nn2-c2nc(C)cc(C)n2)CC1	/	-9	4228	-10	-3.2	-6	9
CCOC(=O)C1CCCN(C(=O)c2[nH]c3ccc(OC)cc3c2C)C1 (configuration not stated)	0	-4	3680	-3	1.4	-3	11
Cc1ccc2[nH]c3c(c2c1)CN(C(=O)CN1CCCc2ccccc21)CC3	-8	-9	5392	-33	-0.9	3	6
COc1cc(C=NNC(=O)c2cccnc2)ccc1OC(=O)c1ccc([N+](=O)[O-])cc1	/	7	/	/	-0.1	0	8
COc1ccc(-n2nnnc2SCC(=O)NC2CC2)cc1	/	-1	8008	1	1.8	8	11
CC1CCCCN1Cc1ccc(-c2nnn(CC(=O)NC3CCCCC3)n2)cc1 (configuration not stated)	1	0	4267	-4	0.6	4	10
c1cc2cc(-c3c(-c4ccc5c(c4)OCO5)noc3-c3ccsc3)ccc2[nH]1	-7	/	3942	-68	/	/	/
COc1ccccc1/C=N/NC(=S)NCc1ccco1	1	/	3739	-22	/	/	/
C[C@]12CC[C@H](OC(=O)CCC(=O)O)CC1=CCC1C2CC[C@@]2(C)C1CC[C@@H]2N (some centres not stated)	/	0	2954	-12	0.3	1	9
O=C(COC(=O)c1ccccn1)Nc1ccc2c(c1)OCO2	2	8	4180	-23	2.0	3	14
Cc1nc(-c2ccc(Cl)cc2)sc1C1(C)CC(c2ccccc2F)=NO1 (configuration not stated)	-6	26	3534	-30	6.4	8	11
CCc1ccccc1N(CC(=O)O)S(C)(=O)=O	-11	7	2647	-31	4.2	/	/
CC1C(c2cccs2)=[N+]([O-])C(C)(C(=O)c2ccc(F)cc2)N1O (configuration not stated)	2	16	10183	-15	2.6	11	-1
Cc1nc(-c2ccncc2)nc(NCCNc2ncccc2C(F)(F)F)c1Cl	-7	-1	5544	-16	1.7	3	3
Cc1ccc(CNC(=O)Cc2ccc(Br)cc2)cc1	-12	1	3592	-22	1.1	2	-2
COc1ccc(CNC(=O)C(OC(=O)c2ccco2)c2ccccc2F)cc1 (configuration not stated)	-13	/	4902	-27	/	/	/
CC(=O)c1ccc(-c2ccc(Cn3c(C)nc4cc(N)c(C)nc43)cc2)cc1	0	19	4520	-15	14	-11	0

# Of the compounds above, 5 contain a COOH group.
molecule	BJeLR viability	Sa ugtP lethal	Bead autofluor	PrP UTR inh	RN4220 kill	Mtb hypoxia inh	Mtb hypoxia inh growth
O=C1CC(Sc2ncccc2C(=O)O)C(=O)N1 (configuration not stated)	-10	2	3174	-5	1.6	0	6
CC1=C(C)CC(C(=O)NNC(=O)c2csc(C)c2C)C(C(=O)O)C1 (configuration not stated)	-5	10	3447	-9	4.8	-6	-2
O=C(CSc1nnc(SCc2ccccc2Cl)s1)N/N=C/c1ccc(C(=O)O)cc1	0	/	5533	-9	/	/	/
C[C@]12CC[C@H](OC(=O)CCC(=O)O)CC1=CCC1C2CC[C@@]2(C)C1CC[C@@H]2N (some centres not stated)	/	0	2954	-12	0.3	1	9
CCc1ccccc1N(CC(=O)O)S(C)(=O)=O	-11	7	2647	-31	4.2	/	/

# The main list resumes; the 2 compounds before the break are reprinted first.
molecule	BJeLR viability	Sa ugtP lethal	Bead autofluor	PrP UTR inh	RN4220 kill	Mtb hypoxia inh	Mtb hypoxia inh growth
COc1ccc(CNC(=O)C(OC(=O)c2ccco2)c2ccccc2F)cc1 (configuration not stated)	-13	/	4902	-27	/	/	/
CC(=O)c1ccc(-c2ccc(Cn3c(C)nc4cc(N)c(C)nc43)cc2)cc1	0	19	4520	-15	14	-11	0
CC1(C)CC2CC(C)(CN2C=Nc2sc3c(c2C#N)CC(C)(C)NC3(C)C)C1 (configuration not stated)	/	-18	/	/	-3.5	4	4
O=C(COc1ccccc1)N1CCN(C(=O)c2ccc([N+](=O)[O-])cc2)CC1	3	2	2539	-13	1.5	5	-5
Cc1ccc(C(=O)COC(=O)COc2ccccc2[N+](=O)[O-])s1	/	4	4099	-8	3.6	6	8
CCOC(=O)C1CCN(S(=O)(=O)c2ccc(NC(=O)c3ccco3)cc2)CC1	5	5	5877	5	2.8	6	5
COc1ccc(C2(c3ccc(OC(C)=O)cc3OC(C)=O)CC(c3ccccc3)NC(=S)N2)cc1 (configuration not stated)	9	/	4469	-14	/	/	/
CCCCN(CCCNC(=O)CN1C(=O)COc2ccc(S(=O)(=O)N3CCC(C)CC3)cc21)Cc1ccccc1	0	-1	4812	13	-2.1	3	-4
C=CCN(c1ccccc1)S(=O)(=O)c1cc2c(cc1C)NC(=O)CO2	-5	-4	5351	-24	6.2	/	/
